Yeast UUG start: alters start codon recognition fidelity in yeast; S. cerevisiae UUG-firefly luciferase reporter, luminescence/redox ratio; activity score, % at 18.7 µM; 350,000 compounds, 0.13% hits; AID 602363;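 active means replicate mean at a twofold rise or more, about +100% in these data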;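 further: firefly luciferase made from a UUG start codon reports start codon fidelity; reporter light over untreated wells divided by growth signal over untreated wells; some hits fall short of that in this replicate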
HIV Env fusion: blocks HIV Env-driven cell-cell fusion; HeLa-JRFL Env/CEM21 cell fusion, luciferase; inhibition, % at 12.3 µM; 360,000 compounds, 1.1% hits;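 active means mean replicate inhibition score of at least 50 and every replicate individually at or above 50; inconclusive means only one of the two criteria met; inactive means mean below 50 and not all replicates reaching 50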;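 further: 0% = plate neutral controls and 100% = maraviroc near 300 nM; one replicate is shown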
MT1-MMP act inh: blocks activation of human MT1-MMP | 360,000 compounds, 0.061% hits | AID 651647 | HT1080 RFP-PRO-GFP cells, GFP/RFP ratio fluorescence, overnight; percent of plate control window, DMSO zero | P50281 | GFP/RFP ratio change, % at 20 µM;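 active means GFP/RFP ratio change of at least 30% with cell ATP level not reduced by more than half and red fluorescence within 50% of control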; further: strong numbers were not always called active
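Compound: 20 µM single dose, 1% DMSO / System: HT1080 RFP-PRO-GFP cells / Controls: DMSO and RFP-L50D-GFP cell wells / Read-out basis: GFP/RFP fluorescence ratio / Schedule: overnight compound exposure at 37 °C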
PABP FP inh: blocks human PABP binding to poly(A) RNA | fluorescence polarization | 290,000 compounds, 1% hits | inhibition, % at 35 µM;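 active means 50% or more with normal probe brightness, or confirmed in later tests; inconclusive means above 50% with abnormal brightness, or retests that disagree; inactive means below 50% or failed in later tests; about a fifth of its hits are not listed in these tables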;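 further: calls also rest on retests at 20 µM and on dose response follow-up; controls were probe without protein and protein plus probe with vehicle; some compounds called inactive have numbers as strong as hits; many hits fall short of the cut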
Rce1 inhib: blocks yeast Ras-converting enzyme. Q03530. yeast membranes, quenched prenylated peptide cleavage fluorescence. calls only. 290,000 compounds, 0.27% hits;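 active means fall in fluorescence gain of 50% or more versus controls, with final raw signal at or below 3038400; inconclusive means same 50% fall but final raw signal above 3038400; inactive means fall in fluorescence gain under 50%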;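 further: plate controls were neutral control wells for no effect and wells lacking membranes for full effect; tested at 10 µM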
Target sequence (Q03530 whole entry, looked up): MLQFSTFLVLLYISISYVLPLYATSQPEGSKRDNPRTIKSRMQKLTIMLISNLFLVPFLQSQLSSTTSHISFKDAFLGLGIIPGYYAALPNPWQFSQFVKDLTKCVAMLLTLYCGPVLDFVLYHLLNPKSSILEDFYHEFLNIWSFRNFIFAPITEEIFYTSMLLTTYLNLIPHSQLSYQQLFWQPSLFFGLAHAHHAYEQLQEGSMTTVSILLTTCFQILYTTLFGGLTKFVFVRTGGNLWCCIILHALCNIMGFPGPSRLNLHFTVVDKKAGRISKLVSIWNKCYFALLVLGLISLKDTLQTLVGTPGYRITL
eIF4H FP inh: inhibitors of RNA binding by human eIF4H | 290,000 compounds, 0.94% hits | AID 2012 | Q15056 | inhibition, % at 35 µM | eIF4H fluorescence polarization binding assay;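 active means 50% or more with normal probe brightness, or confirmed in later tests; inconclusive means above 50% with abnormal brightness, or retests that disagree; inactive means below 50% or failed in later tests; about a fifth of its hits are not listed in these tables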;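 further: calls also rest on retests at 20 µM and on dose response follow-up; 0% = protein and probe with vehicle and 100% = probe without protein; strong numbers were not always called active; many hits fall short of the cut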
CSC inhib: cancer stem cell inhibition; inhibition, % at 7.5 µM; cancer stem cell-like cells viability, luminescence; 300,000 compounds, 1.1% hits; AID 2717;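 active means mean at 75% or more and at least half the replicates too; inconclusive means mean and replicates disagree; tested in HMLE shEcad cells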;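 further: 0% = median of negative and 100% = median of positive control wells; the first replicate is given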
eIF4H FP inh retest: second read-out of eIF4H FP inh, no call of its own (marks repeat the call); inhibition, %; compound at 20 µM; confirmation average;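 mean of two retest wells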
PABP FP inh retest: further read-out of PABP FP inh, marked with its call; inhibition, %; compound at 20 µM; confirmation repeats;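 mean of two retest wells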
MT1-MMP act inh RFP: recorded beside MT1-MMP act inh, whose call it bears; RFP signal change, %; measured here: RFP expression control read;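 0 = vehicle wells; hits needed this value within 50% of zero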
* = called active by the depositor; i = inactive; ? = inconclusive; · = no result given. Only part of the results is shown; the hit share may differ from the screen's.

SMILES | Yeast UUG start | HIV Env fusion | MT1-MMP act inh | MT1-MMP act inh RFP | PABP FP inh | Rce1 inhib | eIF4H FP inh | CSC inhib | others
Cc1ccc2cc(CN(CCN3CCOCC3)Cc3nnnn3Cc3ccco3)c(=O)[nH]c2c1C | -15 | · | -8 | 2 | 72* | i | 86* | ·
Cc1cccn2c(=O)c3cc(C(=O)N4CCCC(C)C4)sc3nc12 (stereo not drawn) | -5 | 6 | -1 | 3 | 9 | i | 4 | ·
Cc1ccc(NC(=O)CN2C(=O)N/C(=C/c3ccc(C)s3)C2=O)cc1 | -19 | -40 | -29 | 6 | -5 | i | ? | -7
CC1=C(CC(=O)O)c2cc(F)ccc2C1=Cc1ccc(S(C)(=O)=O)cc1 | 8 | 9 | 0 | 7 | · | · | · | -5
CCn1cc(CNC(=O)C2C3CCC(C3)C2C(=O)O)cn1 (stereo not drawn) | 23 | · | 2 | 1 | 8 | i | 4 | 0
Cc1nc2ccccn2c1C(=O)N/N=C/c1ccccc1 | -10 | 17 | 4 | -4 | 1 | i | -13 | ·
O=C(NCCc1ccccc1)c1ccccc1NC(=O)C1CCCCC1C(=O)O (stereo not drawn) | · | -12 | · | · | -2 | i | -3 | -6
CC(=O)Nc1cccc(C(=O)NC(C)c2ccc(S(N)(=O)=O)cc2)c1 (stereo not drawn) | 3 | · | 3 | 6 | -13 | i | 5 | -4
CC(C)(C)n1nnnc1C(c1cccs1)N(Cc1cccnc1)Cc1ccccc1Cl (stereo not drawn) | -1 | 36 | 1 | 0 | 38 | i | -5 | 41
O=C(O)c1cc(N2C(=O)C3C4C=CC(C4)C3C2=O)ccc1N1CCOCC1 (stereo not drawn) | · | 0 | 1 | 1 | 2 | i | 3 | 0
Cc1ccc(C)c(-n2c(N)c(C(N)=O)sc2=S)c1 | -21 | -64 | -2 | 3 | · | i | · | -14
Cc1ccc(C)c(NC(=O)CN(C)C(=O)CN2C(=O)C3CCCCC3C2=O)c1 (stereo not drawn) | -9 | 9 | 0 | 3 | · | i | · | -5
NC(=O)c1sc2nnc(-c3ccccc3)c(-c3ccccc3)c2c1N | -17 | 5 | -36 | -12 | 18 | i | 0 | -3
NC(=O)C1CCN(c2nc(-c3ccc(Br)cc3)cs2)CC1 | · | -6 | -1 | -3 | -6 | i | 1 | 8
COc1ccc(NC(=O)Cn2c3ccccc3c3nc4n(c(=O)c32)CCS4)cc1OC | -21 | 0 | -3 | 0 | · | i | · | -3
COc1ccc(CCC(=O)NC(C)C)cc1 | -3 | 9 | 1 | 0 | -4 | i | -3 | -18
CN(Cc1ccccc1)C(=O)c1ccc(Nc2nc(C(N)Cc3ccc(C(F)(F)F)cc3)cs2)nc1 (stereo not drawn) | 8 | 1 | -9 | -12 | · | · | · | ·
CCOC(=O)c1c(S(=O)(=O)NCC(=O)Nc2ccccc2OC)c(C)n(C)c1C | -6 | 1 | -4 | 0 | -6 | i | -10 | -11
O=C(NCc1ccc(Cl)cc1)C1CCCN(C(=O)c2ccc(Cl)cc2)C1 (stereo not drawn) | -9 | 5 | -1 | -5 | · | · | · | -18
COc1ccc(C)cc1-n1c(C)cc(C=O)c1C | -7 | -8 | 0 | 0 | 1 | i | -4 | 13
Cc1ccc(O)c(NC(=O)c2ccc3c(c2)C(=O)N(Cc2cccnc2)C3=O)c1 | -24 | -5 | -8 | -2 | 1 | i | -5 | 3
Cc1nc(SCCC(=O)O)c2ccccc2n1 | -10 | · | -3 | -1 | -7 | i | -4 | 6
O=C(CO/N=C/c1ccccc1OC(F)F)NC1CCCCC1 | -5 | 2 | 2 | 0 | -3 | i | 2 | -13
Cc1ccc(C)c(NC(=O)C2C(c3ccccc3)C2(Cl)Cl)c1 (stereo not drawn) | -24 | · | -3 | -11 | -5 | i | 1 | 18
CC(Cc1cccs1)NC(=O)c1cccs1 (stereo not drawn) | -9 | -9 | -1 | -2 | 0 | i | -3 | 1
COc1ccc(CN2C(=NC(=O)c3ccccc3)SC3CS(=O)(=O)CC32)cc1 (stereo not drawn) | -10 | 7 | 0 | -5 | 12 | i | 6 | -11
O=C(Cn1nnc2ccccc21)OCC(=O)c1ccc(F)cc1 | -18 | -5 | -3 | -1 | -5 | i | -13 | -11
C/C=C\C=C/C(=O)Nc1cccc(C2=NOC3(C2)C[C@@H](C(N)=O)N(C(=O)CCCCC)C3)c1 (stereo partly drawn) | 7 | -7 | -3 | 4 | 2 | i | -5 | -13
CC(=O)Nc1cc(-c2ccccc2Cl)cn2c(-c3ccc(S(C)(=O)=O)cc3)cnc12 | -5 | 9 | -10 | -1 | · | · | · | ·
Cc1cc(C)nc(N2CCC(C(=O)NCC3CCCCC3)CC2)n1 | -16 | · | 5 | 5 | 5 | i | 11 | ·
CCn1c(Cc2ccccc2)nnc1SCC(=O)Nc1nc2ccccc2s1 | 5 | · | 6 | 2 | 1 | i | -8 | -13
O=C(CN1C(=O)NC2(CCCCC2)C1=O)Oc1ccc2c(C(F)(F)F)cc(=O)oc2c1 | -6 | -6 | -9 | -2 | · | i | · | -1
CC1CN(c2nc3ccccc3cc2-c2ccccc2)CC(C)O1 (stereo not drawn) | · | -2 | -2 | -6 | -3 | i | 14 | 26
Cc1ncc([N+](=O)[O-])n1CC(=O)N/N=C/c1ccccc1F | · | -7 | -2 | 0 | -7 | i | 1 | -18
CCCc1noc(-c2ccc(-c3ccccc3)cc2)n1 | · | -245 | 9 | -1 | 6 | i | -2 | 11
Cc1ccc(C)c(NC2=C(Cl)C(=O)OC2OC(=O)c2ccco2)c1 (stereo not drawn) | -1 | · | -2 | 0 | -8 | i | -7 | 7
C#CCOc1ccc(/C=N/NC(=O)c2cccnc2)cc1OCC | -7 | 7 | 1 | 4 | 6 | i | 5 | -5
COc1ccc(-n2c(C)cc(C(=O)CSc3nn4c(=O)c(C(C)(C)C)nnc4s3)c2C)cc1 | -4 | -5 | -6 | -8 | 21 | · | 6 | 19
COc1cccc(N2C(=O)CN(Cc3ccccc3)C2=S)c1 | 0 | -6 | -1 | 2 | 3 | i | -13 | -5
Cc1nc2ccc([N+](=O)[O-])cc2c(=O)n1Cc1ccc(Cl)cc1 | -21 | 4 | 2 | -8 | -2 | i | -8 | 12
CC[C@@]1(C(=O)OC)N[C@H](CN(C)C(=O)c2ccccc2)[C@@H]2C(=O)N(Cc3ccccc3)C(=O)[C@@H]21 | -6 | 41 | 5 | 7 | · | · | · | ·
O=C(O)C1CCCN(CCC=C(c2ccccc2)c2ccccc2)C1 (stereo not drawn) | 0 | 20 | 0 | 0 | · | i | · | -4
CCC(=O)Nc1c2c(nn1-c1ccc(C)cc1)CS(=O)(=O)C2 | 2 | · | 4 | 4 | 1 | i | -6 | 0
COc1ccc(Cl)cc1NC(=O)CCN1C(=O)NC(C)(C)C1=O | -6 | -8 | -1 | 3 | · | · | · | ·
CCOC(=O)c1sc2nc(SC)nc(-c3ccccc3)c2c1N | 18 | -18 | 0 | -3 | 12 | i | -2 | -9
CCSc1nnc(NC(=O)[C@@H](NC(=O)c2cccc(C)c2)C(C)C)s1 | -27 | -8 | -5 | -7 | -7 | i | 2 | 12
CCN(Cc1ccccc1)C(=O)CCCOc1ccccc1 | -33 | · | -1 | -1 | 7 | · | -3 | ·
CC1CCc2c(sc3ncnc(SC(C)C(=O)NCC4CCCO4)c23)C1 (stereo not drawn) | · | -23 | 0 | 1 | · | i | · | 0
O=c1cc(-c2ccc(C(F)(F)F)cc2)oc2ccccc12 | 0 | 14 | 4 | 2 | · | · | · | -2
CCCCCSc1nnc2c(n1)OC(c1cccn1C)N(C(C)=O)c1ccccc1-2 (stereo not drawn) | -9 | 15 | -5 | -3 | -10 | i | -5 | -1
CN(C)c1ccc(C(=S)N2CCCCC2)cc1 | -29 | -5 | 2 | 4 | -2 | i | -9 | -19
CC(=O)C1=C(C)NC2=C(C(=O)c3ccccc32)C1c1ccccc1 (stereo not drawn) | · | 64* | 6 | 5 | 10 | i | -9 | 57
Cc1ccc(C2(c3noc(CN4C[C@@H](C)O[C@@H](C)C4)n3)CCCC2)cc1 | 5 | 3 | -2 | -4 | 18 | i | -14 | -2
O=C(c1ccc(F)cc1)c1c[nH]c(C(=O)NCc2cccnc2)c1 | -14 | 50 | 5 | -5 | 5 | i | -8 | -7
O=c1[nH]c2cc([N+](=O)[O-])ccc2c2cc(Br)ccc12 | 3 | -73 | -7 | -6 | · | · | · | ·
Fc1ccccc1/C=C1\CCCC2=C1Nc1ncnn1C2c1ccccc1F (stereo not drawn) | · | · | · | · | 10 | · | 10 | -3
COc1ccc(/C=C(/C(=O)Nc2ccccc2C(=O)NC(C)C)c2ccccc2)cc1 | -12 | -51 | -4 | -1 | -4 | i | 10 | 51
O=C(NCc1ccco1)c1cnccn1 | -22 | · | -3 | -4 | 16 | i | 19 | -11
O=C1CCCc2c1sc1nc3n(c(=O)c21)CCCCC3 | 0 | -87 | -1 | 5 | -1 | i | -6 | -3
Cc1ccc(-c2n[nH]c(=S)n2/N=C/c2ccc(C)s2)cc1 | -19 | · | 0 | 0 | -4 | i | 4 | -9

In the list so far, these have a furan ring, fused or not:
SMILES | Yeast UUG start | HIV Env fusion | MT1-MMP act inh | MT1-MMP act inh RFP | PABP FP inh | Rce1 inhib | eIF4H FP inh | CSC inhib | others
Cc1ccc2cc(CN(CCN3CCOCC3)Cc3nnnn3Cc3ccco3)c(=O)[nH]c2c1C | -15 | · | -8 | 2 | 72* | i | 86* | ·
Cc1ccc(C)c(NC2=C(Cl)C(=O)OC2OC(=O)c2ccco2)c1 (stereo not drawn) | -1 | · | -2 | 0 | -8 | i | -7 | 7
O=C(NCc1ccco1)c1cnccn1 | -22 | · | -3 | -4 | 16 | i | 19 | -11

(next part)
SMILES | Yeast UUG start | HIV Env fusion | MT1-MMP act inh | MT1-MMP act inh RFP | PABP FP inh | Rce1 inhib | eIF4H FP inh | CSC inhib | others
O=S(=O)(c1ccc(Cl)cc1)c1nc(-c2ccccc2F)oc1NCCN1CCOCC1 | -13 | · | -2 | -4 | -6 | · | -7 | -6
Cc1ccc2c(c1)sc1nc(=O)n(-c3ccc(Cl)c(Cl)c3)c(=O)n12 | -15 | -87 | 11 | 8 | 16 | · | -5 | 7
C=CCOc1ccc(Br)cc1CNC(C)(C)CO | · | 0 | 1 | 3 | -6 | · | 18 | 5
Cc1ccc(Oc2ccc(NC(=O)CSc3n[nH]c(N)n3)cc2)cc1 | · | 7 | 2 | -3 | -12 | i | -3 | 7
O=C(CN1C(=O)NC2(CCCC2)C1=O)NC(c1ccccc1)c1ccccc1 | -3 | 0 | 4 | 2 | · | · | · | -24
CN1CCN(C2=Cc3ccc(Cl)cc3Sc3ccc(F)cc32)CC1 | -7 | 16 | -14 | -14 | -5 | i | 2 | 121*
COc1ccc(C(C)=O)cc1CC(=O)Nc1ccc2c(c1)CCC2 | -9 | 1 | 1 | 1 | 5 | i | 69 | 7 | eIF4H FP inh retest=9;PABP FP inh retest=13
CC12CCC(C(=O)N3CCN(Cc4ccccc4)CC3)(OC1=O)C2(C)C (stereo not drawn) | -24 | · | 2 | 2 | -2 | i | -11 | -5
Cn1cccc1Cc1nnc(SCC(=O)N2CCCCCC2)n1CCc1ccccc1 | -8 | -227 | -1 | -1 | -6 | i | -8 | -11
Cc1cc(C)c2nc(NC(=O)c3ccco3)sc2c1 | -17 | -180 | -1 | 0 | -9 | i | -25 | 39

Screening results: PubChem BioAssay, several laboratories
